Rango complex inh = inhibitors of Rango-importin beta complex formation | actives 0.031% (n = 340,000) | Rango CFP/YFP FRET sensor + importin beta, 45 min | Potency, µM (doses to about 92.2 µM), without a hit: at the highest dose inhibition of complex formation | Q14974 | AID 540263; active = rising FRET ratio curve, often small or poorly fitted; inconclusive = mostly compound fluorescence or quenching in the first reads; inactive = flat curves in all reads;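 further: potency means the concentration at half of the fitted maximal effect; 0% = DMSO wells and 100% = buffer wells lacking importin beta; nearly all actives have a fitted effect of over 15% in size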
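Inhibition scored from the CFP 486 nm/YFP 530 nm FRET ratio 45 min after adding 0.125 microM importin beta to 50 nM Rango biosensor preincubated 5 min with compound (room temperature, PBS with DTT, Tween-20, BSA). No-importin wells as positive control.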
GLA inh pH 4.5 = alpha-galactosidase A (human) inhibition, pH 4.5. purified enzyme, 4-MU-alpha-Gal fluorescence, pH 4.5. P06280. 230,000 tested, under 10 active. AID 1467. activity change, negative = inhibition, % at 105 µM; inconclusive = small, poorly fitted or top-dose-only inhibition, or a rising curve; inactive = flat fitted curve, though single readings scatter; no compound was filed as active;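 further: 0% = full activity with enzyme and -100% = basal without enzyme; dose as in the result columns while the protocol names 77 µM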
Target sequence (P06280 whole entry, looked up): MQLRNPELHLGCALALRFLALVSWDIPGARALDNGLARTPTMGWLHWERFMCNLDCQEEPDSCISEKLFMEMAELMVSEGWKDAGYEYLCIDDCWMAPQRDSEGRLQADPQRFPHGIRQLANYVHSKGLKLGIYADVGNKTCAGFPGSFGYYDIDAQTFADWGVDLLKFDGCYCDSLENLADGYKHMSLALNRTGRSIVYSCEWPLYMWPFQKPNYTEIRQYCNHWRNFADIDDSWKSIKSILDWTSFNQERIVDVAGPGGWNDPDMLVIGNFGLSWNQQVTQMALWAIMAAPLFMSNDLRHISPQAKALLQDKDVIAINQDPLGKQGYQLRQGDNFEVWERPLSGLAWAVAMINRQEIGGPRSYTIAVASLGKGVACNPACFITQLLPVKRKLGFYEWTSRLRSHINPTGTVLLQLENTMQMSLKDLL
miR-21 FLuc = raises the signal of a miR-21 reporter; HeLa miR-21 FLuc reporter, luciferase, 48 h; AID 2288; Potency, µM (highest dose often 38.3 µM), for the others: top-dose reporter change, positive = more light; 340,000 tested, under 10 active; active = well fitted rising curve with a large enough effect; inconclusive = small, poorly fitted or top-dose-only effect; inactive = no such curve, though single readings can be large or run the other way;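 further: % of control where 0% means no effect; miR-21 action dims this reporter so a rising signal means less miR-21 action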
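HeLa miR-21-FLuc reporter line, endogenous miR-21; 2000 cells/well in DMEM/10% FBS; compound titration up to ~40uM final, 48 h, 37 degree Celsius; luciferase detection reagent, 15 min lysis, CCD luminescence.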
Rango dissoc inh = inhibitors of RanGTP-induced Rango-importin beta complex dissociation; O95149+P62826; actives 0.071% (n = 340,000); Biochemical FRET Rango-importin beta, RanGTP-induced dissociation; AID 540253; Potency, µM (doses to about 46.1 µM), inactives show at the top dose activity change, negative = inhibition; active means falling FRET ratio curve, often poorly fitted, with flat reads before Ran was added; inconclusive means other falling curves, or compound fluorescence or quenching; inactive means flat or rising ratio curve;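 further: potency means the concentration at half of the fitted maximal effect; % of control where 0% means no effect; nearly all actives have a fitted effect of over 45% in size; -100% = wells without RanGTP and RCC1; the record marks most hits as doubtful in a second field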
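Compounds preincubate 5 min with complex of recombinant Rango and importin beta in PBS with 1 mM DTT. Ran (0.6 uM) loaded with 2 mM GTP plus 0.2 uM RCC1 starts dissociation; FRET is recorded 45 min later.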
* hit, by the source's call; ? = inconclusive; nt = not tested or not shown; [ ] = another dose, or the depositor's remark.

SMILES | Rango complex inh | GLA inh pH 4.5 | miR-21 FLuc | Rango dissoc inh
O=C(Nc1ccn(Cc2c(F)c(F)cc(F)c2F)n1)c1ccc(COc2ccccc2Cl)cc1 | 5.2% | -3.8 | 28.9% | -2.9%
c1ccc(-c2nn3c(Cn4nnc5ccccc54)nnc3s2)nc1 | 1.3% | -4.8 | -27.0% | 1.9%
CCc1nc2scc(-c3ccc(C)cc3)c2c(=O)n1N | -0.5% | -0.2 | -28.8% | 11.5%
CCc1ccc2oc(C(=O)Nc3nonc3C)c(C)c2c1 | -4.6% | nt | -14.5% | -3.1%
COc1ccc(OCCN(C)CC(=O)Nc2c(C)cccc2C)cc1 | -0.2% | nt | -4.2% | -8.7%
CN(C)S(=O)(=O)N1CCN(S(=O)(=O)c2ccc(F)cc2)CC1 | 7.0% | -4.9 | -5.4% | -1.8%
COc1ccc(C2CC(c3cccs3)=NN2c2nc(-c3ccccc3)cs2)cc1OC (centres undefined) | ? | 0.9 | -9.3% | ?
Cc1ccc(NC(=S)Nc2ccc(F)cc2)cc1C | -5.5% | nt | -6.1% | 3.1%
N#Cc1cc2cc3c(cc2nc1SCC(=O)OC1CCCCC1)OCO3 | ? | 3.5 | -1.8% | -8.9%
CC(=O)NNc1nc(-c2ccccc2)c2cc(Br)ccc2n1 | 0.4% | -0.5 | 0.0% | -13.0%
C[C@H](CO)N1C[C@H](C)[C@@H](CN(C)Cc2ccc(C(=O)O)cc2)Oc2ccc(NC(=O)Cn3cnnn3)cc2C1=O | ? | nt | nt | 3.5%
CCOC(=O)N/N=C\c1ccc(-c2cccc(C(F)(F)F)c2)o1 | -3.9% | 0.5 | -4.8% | 3.3%
CC(C)CCNC(=O)CN(Cc1ccccc1)C(=O)CCC(=O)Nc1ccccn1 | 0.1% | nt | -0.3% | -11.4%
CC(OC(=O)CCN=C1NS(=O)(=O)c2ccccc21)C(=O)N(C)c1ccccc1 (centres undefined) | -2.3% | nt | nt | 0.0%
CN(C(=O)COc1cc(C(F)(F)F)nn1C)c1ccccc1 | -0.8% | 0.4 | -0.1% | -12.5%
CS(=O)(=O)N1N=C(c2ccc3nccnc3c2)CC1c1ccccc1 (centres undefined) | 4.5% | -2.1 | -22.5% | -15.1%
O=C(CSc1nnnn1-c1ccccc1)N1CCc2ccccc21 | 4.1% | 6.4 | -9.1% | 21.9%
Cn1nccc1NC(=O)Nc1ccc(Cl)cc1 | -4.2% | -1.9 | -12.8% | -8.9%
CC(OC(=O)c1cccc(S(=O)(=O)N(C)C)c1)C(=O)NCC(=O)Nc1ccc(F)c(F)c1F (centres undefined) | -2.2% | nt | nt | -14.3%
CN(CC(=O)Nc1c(Cl)cccc1Cl)C(=O)Cc1cccs1 | -2.4% | nt | nt | -2.7%
CSc1nc(N)nc2c1ncn2CC(=O)NCCNc1ccc([N+](=O)[O-])cn1 | 2.0% | nt | nt | -0.4%
O=C(Nc1ccc(F)cc1)c1cccc(NC(=O)C2C3CC4OC(=O)C2C4C3)c1 (centres undefined) | 2.3% | -9.7 | -0.5% | -2.6%
COc1cccc(N2C(=O)CC(N3CCN(S(=O)(=O)c4ccccc4[N+](=O)[O-])CC3)C2=O)c1 (centres undefined) | -3.6% | nt | nt | -10.9%
[O-]C1=N/[N+](=C/c2ccccc2Cl)CC1 | -0.9% | 9.2 | -0.4% | 13.1%
CCCCN1C(=O)c2ccc(C(=O)NCCN3C(=O)S/C(=C\c4cccnc4)C3=O)cc2C1=O | 1.6% | 1.6 | 25.0% | -13.3%

Among those listed so far, two contain a CF3 group:
SMILES | Rango complex inh | GLA inh pH 4.5 | miR-21 FLuc | Rango dissoc inh
CCOC(=O)N/N=C\c1ccc(-c2cccc(C(F)(F)F)c2)o1 | -3.9% | 0.5 | -4.8% | 3.3%
CN(C(=O)COc1cc(C(F)(F)F)nn1C)c1ccccc1 | -0.8% | 0.4 | -0.1% | -12.5%

Further compounds.
SMILES | Rango complex inh | GLA inh pH 4.5 | miR-21 FLuc | Rango dissoc inh
COc1ccc([C@@H]2[C@@H]3C(=O)N(C(C)(C)C)C(=O)[C@@H]3[C@]3(Cc4ccccc4)C(=O)N(c4ccc(C(F)(F)F)cc4)C(=O)N23)cc1 | -0.1% | nt | 0.1% | 32.2%
O=C(CN1CCN(c2ccccc2F)CC1)c1c[nH]c2ccc(F)cc12 | 3.6% | 8.1 | -3.5% | -6.5%
Cc1cccc(OCCn2nnc3ccccc32)c1C | 0.5% | nt | -48.6% | -4.9%
COC(=O)c1cc(-c2ccc(C)cc2)n[nH]1 | 0.1% | 2.6 | -38.3% | -12.4%
O=C(CSc1nnc(-c2ccco2)o1)c1ccc(F)c(F)c1 | -5.2% | 5.8 | 4.6% | -1.3%
C=C(Br)Cn1cnc2ccccc21 | -0.4% | 2.4[21.1 µM] | 0.0% | -10.4%
Cc1ccc(S(=O)(=O)N(C)C)cc1NC(=O)CSc1nc2ccccc2c(=O)n1CC1CCCO1 (centres undefined) | 0.6% | nt | -2.6% | -4.7%
O=C(O)C1C2CCC(O2)C1C(=O)NCCC1=CCCCC1 (centres undefined) | 0.5% | 0.2 | -24.1% | 1.9%
Cc1ccsc1C(=O)c1sccc1C | -1.2% | -0.5 | -11.3% | 1.2%
O=C(NCc1ccncc1)c1ccc(N2CCCC2)c([N+](=O)[O-])c1 | -0.4% | -3.6 | -0.5% | ?
O=C(OCC(=O)N1CCN(c2ccccc2)CC1)c1ncc(Cl)c(Cl)c1Cl | -0.3% | nt | nt | -1.1%
CC1CC(OC(=O)C(O)c2ccccc2)CC(C)(C)N1C (centres undefined) | 0.3% | 7.1 | 6.9% | -23.7%
CC1CCN(C(=O)COC(=O)CCC(=O)c2cccs2)CC1 | 1.0% | nt | nt | 7.3%
CCOC(=O)c1ccc(N(CC(=O)NCC2CCCO2)C(=O)CCC(=O)Nc2cc(C)on2)cc1 (centres undefined) | ? | nt | -7.9% | -5.5%
O=C(Nc1cccc(S(=O)(=O)Nc2ccccc2Cl)c1)c1ccc(Cl)nc1 | 0.2% | -1.7 | ? | 7.2%
O=c1c2ccccc2nc2n1C1(CCCCC1)Cc1ccccc1-2 | -1.8% | -1.5 | 6.6% | 0.7%
Nc1cc(N)nc(SCc2ccc(Cl)cc2)n1 | -1.5% | nt | -30.8% | -5.0%
CCCC(CCC)C(=O)Nc1c[nH]c(=O)[nH]c1=O | ? | 5.2 | -5.6% | -1.1%
O=C(O)c1ccc(Cl)c(S(=O)(=O)N(Cc2ccccc2)c2ccc(Cl)cc2)c1 | 3.5% | nt | 8.7% | -6.9%
Cc1[nH]nc2nc3c(c(OC(=O)c4ccccc4)c12)c(=O)n(C)c(=O)n3C | nt | -8.5 | 1.1% | nt
COc1ccc(Cc2nnc(SCC(=O)N3CCc4ccccc4C3)o2)cc1 | ? | 6.7 | -3.3% | -16.5%
CN(C)S(=O)(=O)c1cccc(NC(=O)c2cc3c(cc2Cl)N2CCCCCC2=NS3(=O)=O)c1 | -0.5% | -2.4 | -9.0% | -8.3%
CCOc1ccc(N(C)S(=O)(=O)c2cc(-c3cc(C)no3)ccc2C)cc1 | -0.4% | nt | 29.0% | -9.1%
O=C1c2ccc([N+](=O)[O-])cc2C(=O)N1CNc1ccccn1 | -0.5% | 0.8 | 0.2% | -1.4%
O=C(Nc1nccs1)c1ccc([N+](=O)[O-])cc1Cl | -0.2% | nt | -15.8% | -15.0%
SMILES | Rango complex inh | GLA inh pH 4.5 | miR-21 FLuc | Rango dissoc inh
Cn1c(=O)c2cc(S(=O)(=O)NCCC(=O)Nc3ccc(F)cc3F)ccc2n(C)c1=O | -3.1% | ? | -0.5% | 1.0%
CC(C)C1N=C2c3ccccc3N=C(SCC(=O)c3ccc(O)c(O)c3)N2C1=O (centres undefined) | -1.6% | -8.8 | 0.6% | 6.1%
O=C(COc1ccc(F)c(Cl)c1)c1ccc[nH]1 | 0.4% | -11.2 | -31.9% | -2.9%
CCOC(=O)CN(C(=O)CSc1nnc(COc2ccc(OC)cc2)n1CC)c1ccccc1 | 1.5% | 1.7 | 6.6% | 7.2%
COc1ccc(C2CCCN2C(=S)Nc2cccc(Cl)c2)cc1OC (centres undefined) | 0.7% | -3.1[21.1 µM] | 2.2% | 0.4%
O=C(Nc1ccc(NC(=O)C2CCCCC2)nc1)c1cccs1 | -0.1% | -18.9 | -51.1% | -14.0%
N#Cc1ccccc1OCC(=O)NNC(=O)CCNC(=O)c1ccccc1 | 1.2% | nt | nt | -3.5%
CC(Sc1nc2ccccc2c(=O)n1CCCN1CCOCC1)C(=O)N1CCc2ccccc21 (centres undefined) | -1.1% | nt | nt | -7.3%
c1cncc(CNCc2ccco2)c1 | -3.2% | nt | -4.5% | 1.3%
COc1cc(NC(=S)NC2CC(C)(C)NC(C)(C)C2)c(OC)cc1Cl | -0.6% | -0.7 | -21.3% | 2.5%
COc1ccccc1CNC(=O)c1ccc(S(=O)(=O)N(C)C)cc1 | 9.5% | 5.0 | -4.0% | 6.7%
Cc1cc2cc(CNC(=O)NC3CCCCC3)ccc2[nH]1 | -1.6% | -10.2 | -26.9% | -17.2%
C#CCOCCOCCOCCNc1nc(N2CCN(C(=O)CCCCCCCCCCNC(=O)Cn3cc(C[C@@H](C)O)nn3)CC2)nc(N2CCN(C(=O)CCCCCCCCCCNC(=O)[C@@H](CCSC)n3cc(CCO)nn3)CC2)n1 | -2.8% | nt | nt | 21.4%
CC1(C)NC(=O)N(CC(=O)Nc2cc(C(F)(F)F)cc(C(F)(F)F)c2)C1=O | -0.2% | nt | 1.1% | -7.3%
O=C(CSc1ccc(Cl)cc1)Nc1ccccc1Oc1ccccc1 | 6.1% | -2.0 | -5.7% | -11.8%
Cc1cc(C)n(C(=O)C(C)N2C(=O)c3ccccc3C2=O)n1 (centres undefined) | 1.7% | 5.5 | -7.3% | -6.9%
COc1cc(C(C)=NNC(=O)c2ccncc2)ccc1O | 0.1% | nt | nt | 5.3%
Cc1ccc(OCCOC(=O)Cn2nc(C)c([N+](=O)[O-])c2C)cc1 | 3.8% | -5.2 | 0.7% | 12.3%
COC(=O)c1c(NC(=S)Nc2ccc(F)cc2[N+](=O)[O-])sc2c1CCCCC2 | 1.3% | 2.7 | -0.7% | -18.1%
Cc1ccccc1N1C(=O)CC1(C#N)c1ccc(OCc2ccccc2)cc1 (centres undefined) | ? | -7.7 | -11.7% | -10.7%
O=C(Nc1cc(S(=O)(=O)N2CCOCC2)ccc1O)c1ccc(S(=O)(=O)N2CCCCC2)cc1 | -0.2% | nt | nt | 12.5%
O=C(NCc1ccccc1)C1CCN(c2nc(-c3ccccc3)nc3c2CCC3)CC1 | 3.8% | nt | 14.5% | 6.2%
CCOc1ccc(C2=Nn3c(nnc3-c3ccc(OC)cc3)SC2)cc1 | 2.0% | 6.3 | 15.9% | -4.5%
CSc1nc(O)c(C(c2ccc(C)cc2)c2c(O)nc(SC)[nH]c2=O)c(=O)[nH]1 | 0.9% | nt | -1.6% | 4.6%
COc1ccc(CCN=C2SCC(=O)N2C)cc1OC | 6.5% | -1.9 | -7.5% | -0.5%
SMILES | Rango complex inh | GLA inh pH 4.5 | miR-21 FLuc | Rango dissoc inh
COC(=O)CC1=C(C(=O)OC)C(c2ccc3c(c2)OCO3)C(C#N)=C(N)O1 (centres undefined) | -5.1% | -2.3 | 0.8% | 2.0%
COc1cccc(Cn2c(OCC3CCCO3)nc3c2c(=O)n(C)c(=O)n3C)c1 (centres undefined) | 0.1% | -2.5 | -9.6% | 0.6%
CCOC(=O)c1cccc(NC(=O)CN2C(=O)C3C4C=CC(C4)C3C2=O)c1 (centres undefined) | -3.9% | -10.5 | -0.3% | 3.0%
CCSc1nnc2c(Cl)cc(Cl)cn12 | 0.1% | -9.1 | -10.0% | 6.2%
C=CCn1c(SCC(=O)c2cccs2)nc2sc(CC)cc2c1=O | 3.0% | -1.7 | 0.3% | -5.9%
CC(=O)c1ccc(NC(=O)c2cccc(N3C(=O)c4ccccc4C3=O)c2)cc1 | 0.4% | nt | 0.6% | 0.0%
Cc1cc(C)nc(NS(=O)(=O)c2ccc(NC(=O)c3ccc4c(c3)OCO4)cc2)n1 | -3.4% | 9.4 | -24.7% | -3.2%
O=C(COc1ccc(Br)cc1Cl)N1CCN(c2ncccn2)CC1 | 0.2% | nt | nt | -1.6%
O=C(CCCc1ccccc1)NCCN1CCOCC1 | ? | 1.0 | -10.6% | -17.7%

Not all compounds are listed; rates above refer to the full screens.
